High-throughput results (PubChem)
HCMV NEC inh: cytomegalovirus nuclear egress complex inhibition. AID 1918969. inhibition, % (concentration not given with the values). actives 0.15% (n = 190,000). HTRF UL50-UL53 interaction, normalized percent inhibition;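 active = both replicates at 50% or more, plus weaker picks with an unusually low signal ratio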;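 note: stock transfer was 100 nL into about 20 µL; 0% = negative control wells and 100% = wells with untagged competitor protein; inactives centre near -12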
The depositor's hits bear a star; & = joins results of further samples. An excerpt; rates above refer to the full screens.

nr	compound	HCMV NEC inh
1	C#C[C@@]1(O)CC[C@H]2[C@@H]3CCc4cc(O)ccc4[C@@H]3CC[C@@]21C	-10
2	Cc1cc(C)c(C(N)=O)c(SCC(=O)Nc2nccs2)n1	-13
3	CCCCC[C@H](O)CC[C@@H]1[C@H]2Cc3cccc(OCC(=O)O)c3C[C@H]2C[C@H]1O	-17&-17
4	CCOC(=O)c1ccc(N2CCC(c3ccccc3F)C2)nc1 (stereo not given)	-9
5	CCCOc1ccc(CC(=O)O)cc1Cl	-22
6	CCCOc1ccc(C(=O)Nc2ccc(C(=O)OCC)cc2)cc1	-11
7	O=c1[nH]c(-c2ccc(F)cc2)nc2ccccc12	-7
8	COc1ccc(/C=C2\SC(=S)N(CCC(=O)N3CCN(C)CC3)C2=O)cc1	-54
9	COc1ccccc1OCC(=O)O	-12
10	CCCCCCCCCCCC1N[C@H](C(=O)O)CS1 (stereo not given in full)	-23&-23
11	CSc1sc(-c2ccccc2)c2[n+]1CC(=O)N2	-27
12	Cc1c(NC(C)C)c(=O)n(-c2ccccc2)n1C	-1
13	Cc1ccc(S(=O)(=O)N2CCOCC2)s1	-5
14	CC(C)n1c(-c2ccc(N(C)C)cc2)nc2ccccc21	-6
15	CCOc1cc2c(cc1C(C)(C)C)NC(=O)CS2	-4
16	CCCCC[C@@H](O)/C=C/[C@H]1[C@H](O)CC(=O)[C@@H]1CCCCCCC(=O)O	-15&-15
17	C=C(C)Cn1c(-c2cccs2)nc2ccccc21	-6
18	COC(=O)c1cc(C(=O)C2CCCCC2)c[nH]1	2
19	CCn1c(=NC(=O)c2ccccc2OC)sc2cc(Br)ccc21	-14
20	CC(=O)Nc1ccc(NC2SC(=O)N(c3ccccc3)C2=O)cc1 (stereo not given)	-10

The list goes on.
nr	compound	HCMV NEC inh
21	CCn1cnc(NC(=O)NC2CCN(Cc3ccncc3)CC2)n1	6
22	O=C(CSc1ccc(F)cc1Cl)C12CC3CC(CC(C3)C1)C2	-10
23	O=C(Nc1nc(-c2ccc3c(c2)OCCO3)cs1)C1CC1	-12
24	O=C(CSc1ncnc2ccccc12)Nc1ccc2c(c1)OCO2	-15
25	CC(C)n1cnc2c(NCc3ccc(S(N)(=O)=O)cc3)nc(NCc3ccc(S(N)(=O)=O)cc3)nc21	-5
26	N#CC1=C(SCC(=O)Nc2ccccc2)NC(=O)CC1c1ccccc1F (stereo not given)	-13
27	OC[C@@H](O)[C@@H](O[C@@H]1O[C@H](CO)[C@H](O)[C@H](O)[C@H]1O)[C@H](O)[C@@H](O)CO	-82
28	CN1CCCC1CCNC(=O)c1cc(-c2ccccc2)cc(S(=O)(=O)N2CCSCC2)c1 (stereo not given)	-6
29	CC(C)C(NC(=O)Cc1c[nH]c2ccccc12)C(=O)O (stereo not given)	-13
30	CCOC(=O)N1CCN(S(=O)(=O)/C=C/c2ccccc2)CC1	-4
31	COc1cc(S(=O)(=O)N(C)C2CCCCC2)c(OC)cc1Cl	2
32	CCOC(=O)c1sc(NC(=O)c2ccc(F)cc2)nc1-c1ccccc1	-1
33	c1ccc(-c2noc(-c3cccc4cccnc34)n2)nc1	-69&-69
34	COC1CCN(C(=O)c2cc(Cc3n[nH]c(=O)c4ccccc34)ccc2F)CC1	-49
35	Cc1nsc(NC(=O)N2CCCC(C)(CO)C2)n1 (stereo not given)	-17
36	CCN(CC)C(=O)C12CCC(C)(C(=O)C1)C2(C)C (stereo not given)	-14
37	CCc1cc(-c2[nH]ncc2Oc2ccccc2)c(O)cc1OC	-14
38	O=C1c2cccc3c2C(CCC3)CN1C1CN2CCC1CC2 (stereo not given)	-59
39	COc1cc(Cl)c(S(=O)(=O)NCc2ccccn2)cc1Cl	1
40	O=S1(=O)CCN(C2CCN(Cc3ccccc3)CC2)CC1	-11

The results go on.
nr	compound	HCMV NEC inh
41	COc1cccc(OCC(=O)N(C)C2CCS(=O)(=O)C2)c1 (stereo not given)	-12
42	O=C(CN1C(=O)CCC1=O)Nc1nc(-c2ccccc2)cs1	-21
43	N#CCCn1cc(/C=N/O)c(-c2ccccc2)n1	-15
44	O=C(CN1C(=O)CC(c2ccccc2)Sc2ccccc21)NCC1CCCO1 (stereo not given)	5
45	CCCCN1C(=O)CCC(C(=O)O)C1c1cccs1 (stereo not given)	-5
46	COc1ncccc1C(=O)N1CCOc2ccccc21	-15&-15
47	CCOc1ccc2ccccc2c1C(=O)N[C@@H]1C(=O)N2[C@@H]1SC(C)(C)[C@@H]2C(=O)O	-28&-14
48	COc1ccc(C(=O)Cc2ccc3c(c2)OCCO3)c(O)c1	-11
49	CC(=O)Nc1cc(C)c2c(=O)oc3ccccc3c2n1	-1
50	C=CCn1c(CCNC(=O)c2ccc(OC)c(OC)c2)nc2ccccc21	-18
51	Cc1cc2cc(CNC(=O)c3ccc(S(=O)(=O)N4CCCC4)cc3)ccc2[nH]1	-16
52	C[C@@H]1O[C@@]2(CS1)CN1CCC2CC1 (racemic)	9
53	CN=C(N)NCCCC(N)C(=O)O (stereo not given)	-42
54	Cc1csc(NC(=O)CCCC(=O)O)n1	-10
55	CC(C)(C)NC1=C(n2nnc3ccccc32)C(=O)c2ccccc2C1=O	-39
56	COc1ccc(-n2cc3ccsc3c2)cc1	-8
57	COC(=O)Nc1ccc(-c2nc(N3CCOCC3)c3cnn(C4CCN(C(=O)OC)CC4)c3n2)cc1	-4
58	O=C(O)c1cccc(-c2noc(-c3ccccc3F)n2)c1	4
59	O=C(O)CSc1ncnc2sc3c(c12)CCCC3	-6
60	ClC(Cl)=Cc1nc2ccccc2s1	-15

(more compounds)
nr	compound	HCMV NEC inh
61	Brc1ccc(-c2ccc3ccccc3n2)cc1	-2
62	COc1cc(/C=C/C(=O)N2CCCCCC2)cc(OC)c1OC	-33
63	Cc1ccc(Cl)c(OCC(O)CNC(C)(C)C)c1 (stereo not given)	-22
64	CC=C1C2C=C(C)C[C@]1(N)c1ccc(=O)[nH]c1C2	-72
65	CCC(CC)C(=O)Nc1nnc(SCC(=O)Nc2ccc(F)cc2)s1	-13
66	Cc1cn(-c2cc(C(=O)Nc3ccc(C)c(NC(=O)c4ccno4)c3)cc(C(F)(F)F)c2)cn1	-6&-4&-1&2
67	CC(C)(C)NC(=O)N1CCN(c2ccc(C#N)cn2)CC1	7
68	Cc1ccc2c(=O)c3ccccc3n(CCCN)c2c1C	-43
69	N#Cc1ccc(-c2ccccc2)nc1SC(C(=O)O)c1ccccc1 (stereo not given)	-44
70	O=C1N[C@@H](CSCc2ccccc2)C(=O)N2CCN(C(=O)Oc3ccccc3)C[C@H]12	4
71	CCCCCCCCCCCCCCCC(=O)N[C@@H](COP(=O)(O)O)C(=O)O	-4
72	c1cnn(-c2cncc(-n3cccn3)n2)c1	5
73	O=C(CC1(O)C(=O)Nc2ccccc21)c1ccccc1 (stereo not given)	7
74	Cc1cc2cc(CNC(=O)COc3ccccc3)ccc2[nH]1	-17
75	CN1CCN(c2nc(C3=C(c4c[nH]c5ccccc45)C(=O)NC3=O)c3ccccc3n2)CC1	-83
76	Nc1ccccc1-c1nc2cc3ccccc3cc2[nH]c1=O	0
77	CCOc1ccccc1O[C@H](c1ccccc1)[C@H]1CNCCO1 (racemic)	2
78	c1ccc(-c2ccc3ccccc3n2)cc1	-4
79	O=C(O)Cc1c[nH]c2ccccc12	-10
80	CC1CC2C3CCC4=CC(=O)C=C[C@]4(C)[C@@]3(F)C(O)C[C@]2(C)C1C(=O)CO (stereo not given in full)	-75

The list goes on:
nr	compound	HCMV NEC inh
81	NC(=O)c1sc2nc3c(cc2c1N)C(=O)CCC3	-26
82	CCn1cc(SCC(=O)NC2CCCCC2)c2ccccc21	-13
83	CC(O)CNc1ncnc2nc[nH]c12 (stereo not given)	-11
84	O=C(Nc1cc2ccc(O)cc2oc1=O)c1cccc(C(F)(F)F)c1	-32
85	CCN1CCN(C(=O)c2cc(-c3ccccc3)nc3ccccc23)CC1	-13&-11
86	O=c1[nH]nc(Sc2ncc([N+](=O)[O-])s2)n1-c1ccc2c(c1)OCCO2	-69
87	CCN(CC)S(=O)(=O)c1ccc(C(=O)NCCn2ccc3ccccc32)cc1	5
88	Cc1cc(-c2ccc(S(=O)(=O)NC3CCCC3)cc2)on1	-8
89	N#Cc1c(N)nc(-c2ccccc2)nc1C(F)(F)F	-7
90	CC(=O)N1CCN(Cc2cnc(Cl)s2)CC1	-13
91	CC(NC(=O)C(O)C(C)C)C(=O)NC1C(=O)N(C)CCc2ccccc21 (stereo not given)	17
92	O=C(Nc1cccc2ccccc12)C1CCCCN1S(=O)(=O)c1ccccc1 (stereo not given)	-2
93	CC(O)c1ccc(-n2cccc2)cc1 (stereo not given)	-4
94	Cc1nc(-c2coc3cc(O)ccc3c2=O)cs1	-12
95	CN(C)S(=O)(=O)c1ccc2nc(NC(=O)c3cccs3)sc2c1	-6
96	C=CC(=O)Nc1cccc(Nc2ccnc(Nc3ccc(N4CCN(C)CC4)cc3)n2)c1	-2
97	CC(C)Nc1cc(C(F)(F)F)nc(-c2ccccn2)n1	13
98	O=C(CSc1nnc(-c2ccccc2)o1)N1CCCCC1	-8
99	O=c1c2cncnc2[nH]n1-c1ccccc1	-25
100	Cc1ccc(Nc2nccc(N(C)c3ccc4c(C)n(C)nc4c3)n2)cc1S(N)(=O)=O	-9&-11&-11&-2&-6

More records:
nr	compound	HCMV NEC inh
101	Cn1c2c(cc(Cc3ccccc3F)c1=O)CN(C(=O)c1ccc(C#CC(C)(C)O)o1)CC2	-9
102	COc1ccccc1C(=O)Nc1nc2c(s1)CC(C)CC2 (stereo not given)	1
103	O=C(Nc1n[nH]c(-c2ccco2)n1)N1CCc2ccccc2C1	-24&-24
104	O=C1OC(Nc2ccc(Cl)c(C(F)(F)F)c2)c2ccccc21 (stereo not given)	-14
105	COCCN1C(=O)C(=O)/C(=C(\O)c2ccc3c(c2)CC(C)O3)C1c1ccc(Cl)cc1 (stereo not given)	-15
106	O=C(CSc1ncn[nH]1)c1ccccc1	-14
107	COc1ccccc1N1CCN(CCCCN2C(=O)CCC2=O)CC1	-14
108	CCCCCCCCCCCCC/C=C/[C@@H](O)[C@H](CO)NCCCCCCCC	-23&-23&9
109	CCOc1ccccc1NC(=O)/C=C/C(N)=O	-25
110	CC(=O)NCCSc1c(C)[nH]c2ccccc12	-17
111	CCCCC/C=C\C/C=C\CCCCCCCC(=O)NCC(=O)O	-10
112	O=C1CC(c2ccccc2)SC(N2CCc3ccccc32)=N1 (stereo not given)	-1
113	CCN1C(=O)CC(C(C)C)N(C2CCCC2)c2nc(Nc3ccc(C(=O)NC4CCN(C)CC4)cc3OC)ncc21 (stereo not given)	-12
114	Nn1c(SCC(=O)NC2CCCCC2)nnc1C(F)(F)F	-8
115	CCOC(=O)C1=C(C)NC(SC)=NC1c1ccccc1 (stereo not given)	-23
116	Cc1cc(N2CCOCC2)cc2[nH]c(-c3c(NCC(O)c4cccc(Cl)c4)cc[nH]c3=O)nc12 (stereo not given)	-19
117	O=C(O)c1ccc(S(=O)(=O)NCc2ccco2)cc1	-28
118	N[C@H]1CCN(O)C1=O	-2
119	COC(=O)COc1cc2oc(=O)cc(C)c2cc1Cl	-18
120	c1ccc(N2CCN(c3cnc4ccccc4n3)CC2)cc1	-8

(listing goes on)
nr	compound	HCMV NEC inh
121	OCC(O)[C@@H](O)CO (stereo not given in full)	-76
122	CC(=O)O[C@@]1(C(C)=O)CC[C@H]2[C@@H]3CCC4=CC(=O)CCC4=C3C(c3ccc(N(C)C)cc3)C[C@@]21C (stereo not given in full)	10
123	CSc1nnc(COc2ccccc2)n1N	3
124	Cc1c(OCC(F)(F)F)ccnc1C[S@@](=O)c1nc2ccccc2[nH]1	-10
125	Cc1ccc(-n2nnnc2-c2nc3ccccc3s2)cc1	-7
126	CCC(C)(O)c1cn(Cc2ccccc2)nn1 (stereo not given)	4
127	CC(NC(=O)c1ccc(F)cc1)C(c1cccs1)N1CCOCC1 (stereo not given)	0
128	CCCn1c(C(Cc2ccccc2)NC(C)=O)nc2ccccc21 (stereo not given)	-13
129	NC(=O)c1cc(Cl)c(C(=O)O)[nH]c1=O	-20

Part of the list above in order of heavy-atom count, ascending:
nr	compound	HCMV NEC inh
118	N[C@H]1CCN(O)C1=O	-2
129	NC(=O)c1cc(Cl)c(C(=O)O)[nH]c1=O	-20
106	O=C(CSc1ncn[nH]1)c1ccccc1	-14
123	CSc1nnc(COc2ccccc2)n1N	3
110	CC(=O)NCCSc1c(C)[nH]c2ccccc12	-17
119	COC(=O)COc1cc2oc(=O)cc(C)c2cc1Cl	-18
115	CCOC(=O)C1=C(C)NC(SC)=NC1c1ccccc1 (stereo not given)	-23
114	Nn1c(SCC(=O)NC2CCCCC2)nnc1C(F)(F)F	-8
112	O=C1CC(c2ccccc2)SC(N2CCc3ccccc32)=N1 (stereo not given)	-1
103	O=C(Nc1n[nH]c(-c2ccco2)n1)N1CCc2ccccc2C1	-24&-24
128	CCCn1c(C(Cc2ccccc2)NC(C)=O)nc2ccccc21 (stereo not given)	-13
107	COc1ccccc1N1CCN(CCCCN2C(=O)CCC2=O)CC1	-14
108	CCCCCCCCCCCCC/C=C/[C@@H](O)[C@H](CO)NCCCCCCCC	-23&-23&9
105	COCCN1C(=O)C(=O)/C(=C(\O)c2ccc3c(c2)CC(C)O3)C1c1ccc(Cl)cc1 (stereo not given)	-15
116	Cc1cc(N2CCOCC2)cc2[nH]c(-c3c(NCC(O)c4cccc(Cl)c4)cc[nH]c3=O)nc12 (stereo not given)	-19
122	CC(=O)O[C@@]1(C(C)=O)CC[C@H]2[C@@H]3CCC4=CC(=O)CCC4=C3C(c3ccc(N(C)C)cc3)C[C@@]21C (stereo not given in full)	10
113	CCN1C(=O)CC(C(C)C)N(C2CCCC2)c2nc(Nc3ccc(C(=O)NC4CCN(C)CC4)cc3OC)ncc21 (stereo not given)	-12
